E coli growth = E. coli growth inhibition | 330,000 tested, 0.21% active | Escherichia coli growth, OD600, 23 h; active compounds read low | OD600 absorbance (test concentration not listed) | AID 1053175;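 active = OD600 absorbance below the run mean of sample wells minus 3.6 SD, in any replicate, cut at about 0.56 in these data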;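 note: stock transfer was 300 nL into about 60 µL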
B2AR ag = agonists of human beta-2 adrenergic receptor inducing internalization | Am2.2-beta2AR cells, FAP receptor internalization, flow cytometry; reference of the scale not given here | response, % (concentration not given with the values) | 340,000 tested, 0.43% active | AID 504454;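 active = response above a set limit, near 3 SD of response in nonfluorescent compounds, cut at about 42% in these data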;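 note: stock transfer was 100 nL into about 11 µL; a reference agonist was the positive control; negative values mostly stem from fluorescent compounds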
FGF22 binding = binders of recombinant human FGF22 by thermal shift | Q9HCT0 | SYPRO orange fluorescence; percent of sucrose octasulfate shift, DMSO zero | calls only at 9.99 µM | 340,000 tested, 1.5% active | AID 651658;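 active = melting point raised past a set limit in the mean and every replicate; three in four hits are not shown here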
Target sequence (Q9HCT0 whole entry, looked up): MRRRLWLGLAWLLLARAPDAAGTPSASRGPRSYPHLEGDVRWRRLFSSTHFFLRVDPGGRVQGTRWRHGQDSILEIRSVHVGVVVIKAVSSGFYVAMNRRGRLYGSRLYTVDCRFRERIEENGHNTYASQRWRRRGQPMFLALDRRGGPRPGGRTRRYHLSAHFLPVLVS
HNF4A DNA FP = change in binding of human HNF4 alpha to DNA | HNF4a-FITC DNA binding, fluorescence polarization, 1 h | activity change, % at 10 µM | 360,000 tested, 0.3% active; in the data active = activity change above about 30%, passing the limit was not always enough;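 note: controls were the assay level and a saturating level of protein; the project sought stronger binding though the title names inhibitors; some compounds called inactive have numbers as strong as hits; positive values seem to mean higher polarization but the record does not say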
Target sequence (P41235 whole entry, looked up): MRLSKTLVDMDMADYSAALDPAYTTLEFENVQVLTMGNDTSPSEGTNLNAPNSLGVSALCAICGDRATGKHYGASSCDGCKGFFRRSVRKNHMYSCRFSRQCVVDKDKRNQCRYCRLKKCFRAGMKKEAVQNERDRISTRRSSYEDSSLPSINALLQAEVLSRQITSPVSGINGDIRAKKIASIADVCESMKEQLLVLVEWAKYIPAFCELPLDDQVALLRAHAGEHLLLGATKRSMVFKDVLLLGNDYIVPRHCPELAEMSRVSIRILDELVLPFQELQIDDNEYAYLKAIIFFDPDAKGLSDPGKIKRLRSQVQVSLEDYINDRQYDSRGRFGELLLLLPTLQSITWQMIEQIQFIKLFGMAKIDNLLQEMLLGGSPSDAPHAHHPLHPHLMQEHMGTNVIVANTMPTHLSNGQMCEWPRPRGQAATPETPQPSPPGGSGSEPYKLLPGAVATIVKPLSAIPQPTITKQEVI
UCH37 inh = inhibitors of human deubiquitinating enzyme UCH37. purified proteasome/UCH37, Ub-AMC cleavage fluorescence. 330,000 tested, 0.33% active. Q9Y5K5. inhibition, % (concentration not given with the values). AID 588478;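 active = mean of two replicates above 20%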;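 note: 0% = compound-free wells with enzyme and 100% = wells lacking proteasome; stock transfer was 100 nL into about 20 µL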
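Assay system: Proteasome-bound UCH37. Buffer or medium: pH 7.4 Tris-HCl (50 mM) with ovalbumin, ATP-MgCl2, DTT. Incubation: 30 min preincubation with enzyme, 25 min cleavage at room temperature. Measured by: fluorescence, ex 355 nm, em 460 nm. Read-out basis: percent inhibition. Control set: wells without proteasome as full block, compound-free enzyme plus substrate as uninhibited.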
LANA-H2B inh = blocks KSHV LANA binding to histone H2A/H2B. Q9QR71. cell-free LANA-H2A/H2B peptide, fluorescence polarization. inhibition, % (test concentration not listed). 320,000 tested, 0.6% active. AID 2629; in the data active = inhibition mostly above about 10%, no sharp cut-off; inactive = mostly below about 6.7%;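 note: stock transfer was 7.5 nL into about 10 µL; 0% = median of vehicle wells and 100% = median of positive control wells; one replicate is shown; the record names a cut of 25% in any replicate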
ALR H2O2 inh = human ALR oxidase inhibition via reduced H2O2; purified ALR, DTT oxidation, H2O2 HRP-luminol luminescence; 290,000 tested, 3.8% active; P55789; inhibition, % (no concentration beside the values);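 active = mean and each replicate at 75% or more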;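 note: stock transfer was 7.5 nL into about 7.5 µL; 0% = neutral wells and 100% = wells with inactivated enzyme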
Target sequence (P55789 whole entry, looked up): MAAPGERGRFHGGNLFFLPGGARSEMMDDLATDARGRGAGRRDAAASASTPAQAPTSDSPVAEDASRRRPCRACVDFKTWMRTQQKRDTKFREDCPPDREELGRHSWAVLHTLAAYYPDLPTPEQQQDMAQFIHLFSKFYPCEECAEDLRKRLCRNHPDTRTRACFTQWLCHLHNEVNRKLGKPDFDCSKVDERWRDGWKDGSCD
* = called active by the depositor; i = inactive; x = no result given.

Compound,E coli growth,B2AR ag,FGF22 binding,HNF4A DNA FP,UCH37 inh,LANA-H2B inh,ALR H2O2 inh
O=C(Nc1cccc(Cl)c1)C1C2CCC3C(CCC21)C3(Cl)Cl (centres undefined),0.71,14,x,-3.6,5.2,-2.8,x
COC1OC2COC(c3ccccc3)OC2C(O)C1N (centres undefined),0.68,-3,i,-4.5,5.2,x,x
COc1ccc(NC(=O)C(c2ccc(C)cc2)N(C)C(=O)c2cnccn2)cc1 (centres undefined),0.72,1,x,2.1,4.5,-0.6,14
Cc1ccc(C(=O)NCCCNc2ccccc2[N+](=O)[O-])cc1,0.63,-6,i,-1.2,9.4,1.4,-4
COc1ccc(CN(C(=O)c2nsc(Cl)c2Cl)C(C(=O)NC2CCCCC2)c2ccc(OC)cc2)cc1 (centres undefined),0.72,17,x,3.0,3.0,3.0,-12
CC(C)CC(=O)Nc1ccc(C(=O)CN2CCC(C)CC2)cc1,0.67,-8,i,3.8,1.3,1.4,-16
CCc1ccc2c(c1)C1(SC(NC(C)=O)=NN1C(C)=O)C(=O)N2C(C)C (centres undefined),0.68,-6,x,6.1,3.0,6.5,-1
COc1cc2cc(C(c3nnnn3C3CCCC3)N(C)C3CCCCC3)c(=O)[nH]c2cc1OC (centres undefined),0.73,13,x,-2.4,-34,-0.7,-1
COc1ccccc1C(=O)Nc1ccc2c(c1)nc1n2CCN(C2CCCCC2)C1,0.66,14,i,8.4,-7.7,3.7,-12
CCC1(C)Cc2c(sc3[nH]c(=O)[nH]c(=O)c23)CS1 (centres undefined),0.75,1,x,-13,-229,-0.3,18
CCOc1cc(/C=N/NC(=O)C(=O)NC)cc(Br)c1O,x,-4,x,-3.3,x,-1.3,15
CC(C)(C)C(=O)Nc1ccc(Cc2ccncc2)cc1,x,-8,i,0.0,x,-5.3,x
Cc1ccccc1-n1nc(C(=O)O)c(C)c(C#N)c1=O,0.73,-2,x,0.2,-4.5,1.1,-7
O=C(COC(=O)c1cc([N+](=O)[O-])ccc1Cl)NCCc1ccccc1,0.69,15,i,1.6,4.6,-3.9,39
Cc1cc(C)nc(NS(=O)(=O)c2ccc(NC(=O)Cc3ccccc3F)cc2)n1,0.66,0,i,-1.1,1.0,1.2,99*
CN(CCCCN1CCOCC1)Cc1nc(-c2ccc3c(c2)OCO3)no1,0.69,3,i,1.5,1.0,-9.6,-32
Cc1ccc(N(C(=O)c2ccc(Br)o2)C2C=CS(=O)(=O)C2)cc1 (centres undefined),0.76,6,i,7.0,3.2,-0.9,77*
O=C(c1cccc(C(=O)N2CCN(c3ncccn3)CC2)c1)N1CCN(c2ncccn2)CC1,0.75,-11,x,-0.6,-6.1,1.8,-8
CCOC(OCC)c1cn(Cc2ccc3c(c2)C(=O)c2ccccc2C3=O)nn1,x,x,i,x,x,0.4,2
Cc1ccc(NC(=O)COC(=O)C2CSC3(C)CCC(=O)N23)c(C)c1 (centres undefined),0.69,-14,i,4.4,1.6,-1.0,1
Cc1ccc(S(=O)(=O)N2CCOCC2)cc1C(=O)OCc1nnc(-c2ccccc2)o1,0.64,11,i,4.7,1.4,-2.8,-44
CCOc1ccc2nc(NC(=O)CN3C(=O)NC4(CCCC4)C3=O)sc2c1,0.67,-7,i,1.8,-1.2,0.0,-9
N#C/C(=N/Nc1ccc(OC(F)(F)F)cc1)C(N)=S,x,18,i,1.1,x,-2.3,57
O=C(Nc1ccc(Cl)c(Cl)c1)c1ccc(Cn2c(=O)[nH]c3ccsc3c2=O)cc1,0.7,-12,i,-0.6,0.6,-1.8,x
S=C1CSc2ccccc2N1,0.72,-1,i,3.6,4.3,1.1,42
CC(C)(C)NC(=O)c1cccc(NC(=O)Cc2ccc(Br)cc2)c1,0.62,-1,x,-2.0,0.6,-2.6,-3
CCOC(=O)CSc1nc(C)cc(C)n1,0.8,7,x,2.6,-0.8,0.6,-7
C/C(N)=C(/C#N)C(=O)COC(=O)c1ccc(C#N)cc1,0.67,-9,i,0.4,-0.3,-2.5,-6
CCc1ccc2nc(/N=C(\N)NC(=O)c3ccccc3)nc(C)c2c1,x,6,i,-2.2,x,-1.1,4
CCCS(=O)(=O)Nc1cccc(-c2cn3c(n2)SCC3)c1,0.68,7,i,-0.2,0.3,2.7,-3

Six entries from above in another layout.
Fields – E coli growth | B2AR ag | FGF22 binding | HNF4A DNA FP | UCH37 inh | LANA-H2B inh | ALR H2O2 inh
> S=C1CSc2ccccc2N1
    0.72 | -1 | i | 3.6 | 4.3 | 1.1 | 42
> CC(C)(C)NC(=O)c1cccc(NC(=O)Cc2ccc(Br)cc2)c1
    0.62 | -1 | x | -2.0 | 0.6 | -2.6 | -3
> CCOC(=O)CSc1nc(C)cc(C)n1
    0.8 | 7 | x | 2.6 | -0.8 | 0.6 | -7
> C/C(N)=C(/C#N)C(=O)COC(=O)c1ccc(C#N)cc1
    0.67 | -9 | i | 0.4 | -0.3 | -2.5 | -6
> CCc1ccc2nc(/N=C(\N)NC(=O)c3ccccc3)nc(C)c2c1
    x | 6 | i | -2.2 | x | -1.1 | 4
> CCCS(=O)(=O)Nc1cccc(-c2cn3c(n2)SCC3)c1
    0.68 | 7 | i | -0.2 | 0.3 | 2.7 | -3

Remaining list, next part.
Compound,E coli growth,B2AR ag,FGF22 binding,HNF4A DNA FP,UCH37 inh,LANA-H2B inh,ALR H2O2 inh
CC(Cc1ccccn1)NC(=O)CCc1nnc(C2CCCCC2)o1 (centres undefined),0.7,-3,x,-4.3,5.7,4.6,2
Cc1noc(C)c1S(=O)(=O)N(C)C[C@H]1Oc2ccc(NC(=O)C3CC3)cc2C(=O)N([C@H](C)CO)C[C@@H]1C,x,-8,i,-1.8,3.1,3.1,3
CN(C)C(=S)Nc1ccc2c(c1)OCO2,0.66,-2,i,1.1,0.9,-2.3,22
COc1cc2nc(CN(C)Cc3ccc(SC)cc3)[nH]c(=O)c2cc1OC,0.7,-1,i,2.5,4.8,14,-5
CC1=NC(=O)C(N=Nc2cccc(O)c2)N1c1ccccc1 (centres undefined),0.71,-4,x,1.9,4.1,-3.2,5
Fc1ccc(CSc2nnc(-c3cc4c(s3)-c3ccccc3CC4)o2)cc1,0.78,0,x,4.3,i,-0.6,-4
Cn1cccc1-c1nc2ccccc2n1Cc1ccccc1,0.7,5,x,-2.3,0.2,-7.6,6
CCOc1ccccc1NC(=O)C(c1ccccc1)N1CCN(CC(=O)N2CCOCC2)CC1 (centres undefined),0.67,1,i,-3.5,4.2,3.1,-3
Cc1cc(C(=O)N/N=C/c2ccc(-c3cccc(Cl)c3Cl)o2)n[nH]1,x,1,x,13,x,1.3,-2
C=CCNC(=S)NNC(=O)c1cccn(Cc2cccc(Cl)c2)c1=O,0.71,2,x,1.2,4.7,0.1,33
CCCn1c(=S)[nH]c2cc(C(=O)N3CCN(C(=O)OCC)CC3)ccc2c1=O,0.65,-1,i,1.0,4.1,3.6,0
CCOC(=O)c1[nH]c(C)c(C(=O)Nc2ccccc2C)c1C,0.73,-7,i,0.5,6.4,1.4,-8
Cc1cc(NC(=O)CN2CCN(S(=O)(=O)c3ccc(Cl)cc3)CC2)no1,0.69,-6,x,1.2,-1.3,-3.5,-10
Cc1c(Cl)cccc1NC(=S)NCc1ccccc1,0.69,1,x,2.1,1.5,-4.2,-1
CC(NCCO)C(=O)C12CC3CC(CC(C3)C1)C2 (centres undefined),0.64,-2,x,-0.5,0.9,0.3,4
Cc1cc(C)c(S(=O)(=O)Nc2ccc(C(N)=O)cc2)c(C)c1,0.67,11,x,0.9,2.3,-1.3,4
COc1ccc(NC(=S)NCc2ccc(F)cc2)c(OC)c1,0.71,-45,i,0.9,2.4,7.3,99*
CC(Sc1nnc(-c2ccco2)n1-c1ccccc1)C(=O)NCC1CCCO1 (centres undefined),0.72,-5,i,-0.8,-0.6,-0.1,1
COC(=O)[C@]1(C)N[C@H](CN(C)C(=O)Nc2ccc(C)cc2)[C@@H]2C(=O)N(C)C(=O)[C@@H]21,x,2,i,-0.5,x,160*,-4
COc1cc(/C=C/C(=O)OCC(=O)NC(=O)C2COc3ccccc3O2)ccc1OC(F)F (centres undefined),0.66,-6,i,0.7,2.1,-0.7,-3
CSc1nnc(C(C)c2ncc(C(F)(F)F)cc2Cl)n1C (centres undefined),0.68,13,i,-2.1,-1.7,2.7,-6
O=C(CSc1nnc(-c2ccncc2)n1Cc1ccco1)N1c2ccccc2Sc2ccc(Cl)cc21,0.71,85*,x,5.8,1.2,0.9,-7
COC(=O)c1ccc(C(=O)OC)c(NC(=O)CSc2n[nH]c(N)n2)c1,0.68,-2,i,1.5,0.2,-0.5,-10
CCN(CC)S(=O)(=O)c1ccc(S(=O)(=O)N2CCC(C(=O)NC3CCN(Cc4ccccc4)CC3)CC2)cc1,0.72,-4,x,2.6,0.7,-3.6,3
CC(=O)c1c(C)[nH]c(C(=O)COC(=O)CNS(=O)(=O)c2ccccc2)c1C,0.71,0,x,8.6,2.6,-2.4,-1
O=C(c1cccnc1)n1nc(NCc2ccccc2)nc1NCc1ccccc1,0.69,-6,i,1.8,6.7,0.4,-2
CC(=O)N(CCc1ccccc1C)Cc1cc2cc(C)ccc2[nH]c1=O,0.69,-3,i,1.7,-6.6,-2.6,-4
CC(CCc1ccccc1)NC(=O)/C=C/c1ccc(Cl)cc1 (centres undefined),x,-15,x,3.0,3.4,-0.7,-5
COc1cc(NS(=O)(=O)c2ccc(N/C=C(\C#N)c3nc4cc(Cl)ccc4o3)cc2)nc(OC)n1,0.71,-8,x,12,1.7,4.9,10
COc1ccc(-n2cnc3cc(NS(=O)(=O)c4ccccc4)ccc32)cc1,0.65,12,i,1.2,1.4,-2.3,x
Cc1nc(-c2ccc(F)cc2)c(CC(=O)N(C)CC(=O)Nc2ccc(Br)cc2C)s1,0.72,0,i,0.6,6.1,4.4,63
O=C1c2cccnc2C(=O)N1Cc1ccc(S(=O)(=O)NCc2ccco2)cc1,0.63,2,i,-2.1,1.6,-0.8,2
CCc1ccc(CCN2C(=O)c3ccccc3C2=O)nc1,0.72,-3,i,-1.5,5.1,-1.2,-4
CC(Oc1ccc(Cl)cc1)C(=O)Nc1nccs1 (centres undefined),0.72,-2,x,1.1,2.1,21*,-11
Cc1cccc(N2CCN(C(=O)/C=C/c3ccco3)CC2)c1C,0.68,1,i,0.1,-0.7,-4.3,11
Cc1nc(-c2ccc(Cl)cc2)sc1C1(C)CC(c2ccc(OC(F)(F)F)cc2)=NO1 (centres undefined),0.7,-3,i,-0.1,5.3,-10.0,x
S=c1nc(-c2ccccc2)[nH]c2ccccc12,0.73,-3,i,-2.2,6.7,-4.8,-1
CC(Oc1cccc(Cl)c1)C(=O)Nc1cc(S(=O)(=O)N2CCCCC2)ccc1N1CCOCC1 (centres undefined),0.74,1,i,1.8,5.6,3.2,-1
O=S(=O)(c1ccc(Cl)cc1)N1CCC2(CC1)CO2,0.67,8,i,-2.9,6.1,5.9,1
CCOc1cc(C2C(C(C)=O)=C(O)C(=O)N2CCc2c[nH]c3ccccc23)ccc1O (centres undefined),0.64,-5,i,-1.9,5.9,1.9,63
Cc1onc(-c2c(Cl)cccc2Cl)c1NC(=O)N1CCSCC1,0.65,-2,i,0.4,1.3,0.1,-3
COc1cc(N(C)C)c([N+](=O)[O-])cc1C(=O)N1CCOCC1,0.66,-6,i,-2.6,5.7,5.3,3
CCCSc1ccccc1C(=O)N1CCN(C(=O)c2ccco2)CC1,0.68,-25,i,4.1,0.5,-0.2,-5
Cc1cc(C)n(C(=O)CNC(=O)CCc2ccccc2)n1,0.67,4,x,3.2,0.5,4.4,-9

Screening results from PubChem.

An excerpt; the hit share may differ from the screen's.
